NPYLR7 ag – mosquito NPYLR7 agonism | 0.15% of 270,000 active | AID 1259423 | HEK293T NPYLR7/Galpha15, GCaMP6s calcium fluorescence | activation, % at 10 µM; in the data active means activation above about 40%;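 further: 0% = vehicle and 100% = reference agonist at the receptor; some compounds past the cut are filed as inactive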
NPYLR7 ag max-min – second read-out of NPYLR7 ag, no call of its own (marks repeat the call); activation, %; measured here: Max-Min RFU normalised activation; some inactives read as strong as hits;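 span of the calcium signal over five minutes; 0% = vehicle and 100% = native peptide agonist; compound fluorescence can raise it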
* hit, by the source's call.

Below each compound: NPYLR7 ag	NPYLR7 ag max-min
COc1ccc(OC)c(S(=O)(=O)NC(C)c2cnn(-c3ccccn3)c2C)c1 (centres undefined)
 : 1	-3
COC(=O)[C@@H]1Sc2cc(NC(C)=O)ccc2N(C=O)[C@H]1C(=O)OC
 : 8	6
CCCNC(=O)NNC(=O)c1cccn(Cc2cccc(Cl)c2)c1=O
 : 9	6
Cc1cc(C)nc(NS(=O)(=O)c2ccc(NC(=O)c3ccccc3Br)cc2)n1
 : 12	10
CCCCc1nc2cc(C(=O)N3CCN(c4ccccc4)CC3C)ccc2o1 (centres undefined)
 : 0	-2
C=CCN1C(=O)NC(c2ccccc2C(F)(F)F)C2=C1CN(C(C(=O)NC1CCCCC1)c1ccccc1)C2=O (centres undefined)
 : -2	9
Cc1nnsc1CN(C)C(=O)CCc1c(C)nn(C)c1C
 : 12	8
c1ccc(C2=NN(c3ccccc3)C3CCCC23)cc1 (centres undefined)
 : 12	11
COCCCN(Cc1cccc(C)c1)Cc1ccc(C(O)(c2ccc(OC)cc2)c2ccc(OC)cc2)o1
 : 2	-1
O=C1N(c2ccccc2)C[C@@H]2C[C@@H](c3cnc(N4CCOCC4)s3)N3CCC[C@@]123
 : 11	15
CC(C)c1cc(C(=O)N2CCCCC2CCN2CCOCC2)on1 (centres undefined)
 : 6	4
COc1cccc(CN2CCCC(CO)(Cc3ccccc3C)C2)c1 (centres undefined)
 : 0	-2
Cc1ccccc1OS(=O)(=O)Cc1ccon1
 : 18	10
O=C1C2C3C=CC(C3)C2C(=O)N1c1ccc(Oc2ccc(N3C(=O)C4C5C=CC(C5)C4C3=O)cc2)cc1 (centres undefined)
 : -6	-5
Cn1ncc2c(NCc3cnn4ccccc34)nc(-c3cccnc3)nc21
 : 2	2
COCc1cnc2c(c1SCC(=O)Nc1ccc(NC(C)=O)cc1)c(=O)n(C)c(=O)n2C
 : 7	11
COc1ccc(N2CCN(c3cc(C(=O)N4CCCC4)c4ccccc4n3)CC2)cc1
 : 4	-1
CN(Cc1cccc2cnccc12)S(=O)(=O)NCc1ccccc1
 : -1	-3
COCCN(CC(=O)N(CCc1c[nH]c2ccccc12)Cc1ccc(C(F)(F)F)cc1)C(=O)c1cccc(Br)c1
 : 8	4
Cc1csc(SCC(=O)NC(=O)NC2CCCC2)n1
 : -4	-4
O=C(NCCNc1ccc(Nc2ccncc2)nn1)Nc1cccc(F)c1
 : 14	3
N=c1sccn1CC(=O)NC(=O)NC1CCCC1
 : 1	1
Cc1ccc(C(NC(=O)CN2CCNC(=O)C2)c2cccs2)cc1 (centres undefined)
 : -2	-3
CCOCCCNc1ccc2nnc(CCNC(=O)c3ccc(C)cc3)n2n1
 : -14	-20
CSCCCNC(=O)c1c(C)noc1-c1cccs1
 : 1	6
O=C(c1cc(F)cc(F)c1)N1CCC(c2ccc(F)cc2)CC1
 : -3	-9
O=C(CCC1CCCN(C(=O)CCc2cccs2)C1)NC1CC1 (centres undefined)
 : 6	7
COCCN=Cc1cc(Br)cc(Br)c1O
 : 9	4
O=C(Cn1cnc([N+](=O)[O-])n1)Nc1cc(Cl)ccc1Cl
 : -11	-12
COc1ccc(-n2c(CCC(=O)NCc3cccnc3)ccc2-c2ccc(Cl)cc2)cc1
 : 0	-2
Cc1cc(C)n(N=Cc2cccc([N+](=O)[O-])c2)c(=O)c1C#N
 : -7	-13
CC(C)(C)[C@H](NC(=O)c1cccc(-n2cccn2)n1)C(N)=O
 : 7	5
COC(=O)C(C)(C)NC(=O)c1csc(-c2ccc(Cl)cc2Cl)n1
 : 6	5
CC(C)(C)OC(=O)NC1CCN(C(=O)c2ccc(CSc3ccc4ccccc4n3)cc2)C1 (centres undefined)
 : -17	-26
Cn1nc(C2CC2)c2c1NC(=O)CC2c1cc(CN2CCCC2)cs1 (centres undefined)
 : 13	8
CC(=O)Nc1ccc(C)c(S(=O)(=O)N(C)Cc2cc(C)on2)c1
 : 1	0
COc1ccc2c(c1)C1(SCCN1C(=O)c1cccc(Cl)c1)C(=O)N2Cc1cccc(C(F)(F)F)c1 (centres undefined)
 : -5	17
CN(C)c1ccc(CCCNC(=O)C(C)(C)n2cc(Br)cn2)cc1
 : -9	-9
CCOc1ccc(-n2cc(-c3ccccc3)c3c(N4CC(C)OC(C)C4)ncnc32)cc1 (centres undefined)
 : -1	-2
CC1(C)SC(c2c[nH]c3ccccc23)N[C@H]1C(=O)O (some centres undefined)
 : -5	-8
Cc1ccc(/C=C2/SC(=S)N(CCC(=O)NNC(=O)c3ccccc3Cl)C2=O)cc1
 : -5	0
Cc1cc(Cl)cc(C)c1OCC(=O)Nc1c(C(=O)N2CCOCC2)oc2ccccc12
 : 0	-1
CCc1ccc2c(c1)sc(=NC(=O)c1cc(C)nn1CC)n2CC(=O)OC
 : 4	10
O=C(CSc1n[nH]c2nc3ccccc3n12)N1CCN(C(c2ccccc2)c2ccccc2)CC1
 : 11	17
CSc1nc(C)c(CCC(=O)Nc2cccc(Br)n2)c(=O)[nH]1
 : 4	-1
COCCNC(=O)Cn1nc([N+](=O)[O-])cc1C
 : 0	1
CCCc1nn(CC(F)(F)F)c(C)c1C(=O)N1CCCC1
 : 16	21
CS(=O)(=O)NCc1cccc(-c2ccc(C#N)s2)c1
 : 16	8
O=c1c2ccccc2nc(-c2ccc3ccccc3c2)n1CCc1ccccc1
 : 5	3
Cc1nc2ccc(Cl)cn2c(=O)c1NC(=O)C(C)Oc1ccc2c(c1)OCO2 (centres undefined)
 : -4	-4
CCOC(=O)C1(CC2CCCCO2)CCN(C(=O)Nc2ccccc2C(=O)OC)CC1 (centres undefined)
 : 9	8
CCc1cc2c3c(c1)C(C)=CC(C)(C)N3C(=O)C2=O
 : 8	7
COCCN(CCC(=O)N1CCN(c2cccc(C(F)(F)F)c2)CC1)c1nc(Cc2cccc(OC)c2)ns1
 : 21	21
COC(=O)c1c(C)[nH]c(C(=O)C(C)N2CCC(C)CC2)c1C (centres undefined)
 : 1	16
O=C1NCCN2CCN(C(=O)Cn3cc(C(F)(F)F)ccc3=O)CC12 (centres undefined)
 : -3	-1
COc1ccc2cc(C(C)C(=O)NNC(=O)C(C)Oc3ccc(F)cc3)ccc2c1 (centres undefined)
 : 3	5
COc1ccc(C2CCN(CC(=O)Nc3ccncc3)C2)cc1 (centres undefined)
 : 8	6
CN(C)C(=O)c1cccc(S(=O)(=O)NC2CCc3ccccc3C2)c1 (centres undefined)
 : 3	2
CCOC(=O)N1CCN(C(=O)CSc2ccc(NC(=O)c3ccccc3)nn2)CC1
 : 1	3
CC(O)(CN1CCC(Nc2ccccc2)C1)c1cccc(C(F)(F)F)c1 (centres undefined)
 : 8	3

Record cards, as listed above. Order of screens: NPYLR7 ag	NPYLR7 ag max-min
Entry for COCCNC(=O)Cn1nc([N+](=O)[O-])cc1C : 0	1
Entry for O=C1NCCN2CCN(C(=O)Cn3cc(C(F)(F)F)ccc3=O)CC12 (centres undefined) : -3	-1
Entry for CC(O)(CN1CCC(Nc2ccccc2)C1)c1cccc(C(F)(F)F)c1 (centres undefined) : 8	3
Entry for Cc1cc(C)n(N=Cc2cccc([N+](=O)[O-])c2)c(=O)c1C#N : -7	-13

(next part)
Below each compound: NPYLR7 ag	NPYLR7 ag max-min
CCCn1ncc(C(=O)N2CCC3(CCCN(Cc4cccc(C)c4)C3)C2)c1C (centres undefined)
 : 6	-3
O=C(C1C[C@@H]1c1ccccc1)N(Cc1cccc(Cl)c1)Cc1nc2cc(Cl)ccc2o1 (some centres undefined)
 : -6	-5
O=C(O)C1=Cc2sc3c(c2CS1)CCCC3
 : 3	0
Cc1cc(/C=C(/C#N)c2nc(N)nc(N(C)C)n2)c(C)n1C(C)C
 : -1	5
Cc1ccc(CC(=O)Nc2cc(Cl)c(Cl)cn2)cn1
 : -9	-14
CC(C)NC(=O)C1CCC(Cn2c(=O)c3sccc3n(Cc3ccccc3Cl)c2=O)CC1 (centres undefined)
 : 2	-4
O=C(NN=Cc1ccc(O)cc1)c1cc(-c2cccc([N+](=O)[O-])c2)n[nH]1
 : 1	-3
O=C(c1ccc(-c2ccsc2)nc1)N1CCCC(c2ccccc2)CC1 (centres undefined)
 : 4	2
CS(=O)(=O)Nc1ccc2c(c1)OCCO2
 : 7	4
CC1(C)OC(=O)N(CCN2C(=O)OC(C)(C)C2(C)O)C1(C)O (centres undefined)
 : 13	4
COC(=O)N1CCc2c(sc(NC(=O)c3ccccc3)c2C(N)=O)C1
 : 9	3
O=C(Nc1sc2c(c1-c1nc3ccccc3s1)CCCC2)C1=COCCO1
 : 10	5
COc1cc(C(=O)N2CCCC(N3CCCC3)C2)ccc1OC1CCCC1 (centres undefined)
 : 1	-1
CCOc1ccc(CN2CC[C@@](C)(O)[C@@H](Cc3ccccc3)C2)cn1
 : 0	0
Cc1ccc(F)cc1S(=O)(=O)N1CCN(c2nccc(-c3cccc(C(F)(F)F)c3)n2)CC1
 : 12	19
CCn1c(SCCCc2nc(-c3cccs3)no2)n[nH]c1=O
 : 5	2
O=C1C(C(c2ccc(Cl)cc2)N2CCCC2)Sc2nc(-c3ccco3)nn21 (centres undefined)
 : -3	-7
Cc1nc(N(C)CC(=O)NC2CC2)c2c3c(sc2n1)CCC3
 : -2	1
CCOc1ccnc(NCCN2CCCOC2=O)n1
 : -2	-3
Cc1cccc(C2(C(=O)C(C#N)C(=O)Nc3ccccc3F)CC2)c1 (centres undefined)
 : 2	0
CCn1nnc2c(NCc3ccc(F)cc3)ncnc21
 : 12	10
COc1ccc(-n2c(C)ccc2-c2ccccc2)cn1
 : 7	-4
CCN(CC)C(=O)Oc1ccc2c(ccn2Cc2ccc(OC(F)(F)F)c(Cl)c2)c1-c1cc(F)cc(F)c1
 : 9	0
COCC(=O)N(Cc1cc(N)ccc1N(C)C)CC1CC1
 : -2	6
Cc1ccc2oc(CN(Cc3ccccc3Cl)C(=O)c3ccc(F)c(F)c3)nc2c1
 : 3	4
O=C(Nc1ccc(N2CCN(C(=O)C3C[C@H]3c3ccccc3)CC2)nc1)c1ccco1 (some centres undefined)
 : 3	5
C=C(C)CN(CC)C(=O)[C@@H]1C[C@H](NC(=O)C2CCCCC2)CN1C
 : 1	0
O=C1Nc2ccc(Br)cc2C12CCCC2
 : 2	30
CCCCc1ccc(-c2ccc(-n3cncc3C(=O)NCCCSC)cc2)cc1
 : 3	-1
Oc1ccc(-c2cccc(Nc3ccc(Oc4ccccc4)cc3)n2)cc1
 : -9	-13

Some of the entries so far, as tab-separated lines:
molecule	NPYLR7 ag	NPYLR7 ag max-min
CCCn1ncc(C(=O)N2CCC3(CCCN(Cc4cccc(C)c4)C3)C2)c1C (centres undefined)	6	-3
O=C(C1C[C@@H]1c1ccccc1)N(Cc1cccc(Cl)c1)Cc1nc2cc(Cl)ccc2o1 (some centres undefined)	-6	-5

(further entries)
Below each compound: NPYLR7 ag	NPYLR7 ag max-min
Cc1ncc(CN2CCC(n3nccc3NC(=O)Nc3ccccc3Cl)CC2)s1
 : 5	4
CCOC(=O)c1c(C2CC2)csc1NC(=O)COC(=O)CN1C(=O)NC(C)(C)C1=O
 : 4	7
Cc1nc(CN2CCN(C(=O)CC(=O)Nc3ccc(F)c(Cl)c3)CC2)cs1
 : 4	-2
O=C(Nc1ccc(F)c([N+](=O)[O-])c1)c1cc(-c2ccccc2Cl)nc2ccccc12
 : 2	-3
C=CCN(Cc1nccn1Cc1c(F)cccc1Cl)C(=O)NC(C)C
 : 6	15
CCOC(=O)CCCSc1nnc(-c2ccc(F)cc2)n1-c1ccc(C)cc1
 : -6	1
CC(=O)Nc1ccc(C)c(S(=O)(=O)NCc2nc3ccccc3s2)c1
 : 0	-2
CN1CCN(C(CNS(=O)(=O)c2ccccc2F)c2ccsc2)CC1 (centres undefined)
 : 6	-1
Nc1ccc(-c2cnc(-c3ccc(N)cc3)nc2)cc1
 : -3	-5
O=C(c1cccc(F)c1)N(Cc1ccco1)Cc1nccn1Cc1ccccc1
 : 17	26
COc1cc2c(cc1OC)CN(C(=O)c1c(C)noc1-c1cccnc1)CC2
 : 2	9
Cc1noc2nc3c(c(C(=O)N4CCC(N5CCCC5=O)CC4)c12)CCC3
 : 5	4
COCCN(CC(=O)N1CC(=O)N(c2cccc(C)c2)C1)C(=O)COc1ccccc1
 : 0	0
Cc1nc(C)n(CC2CN(Cc3nccn3C)CCO2)n1 (centres undefined)
 : -6	49
CN(Cc1ccsc1)C(=O)Cc1nc(-c2ccccc2)n[nH]1
 : 13	9
CNC(=O)Cn1nc(C2CC2)c2cnn(-c3cccc(Cl)c3)c2c1=O
 : 8	5
CN1CCCc2cc(C(CNC(=O)c3ccc(Br)o3)N(C)C)ccc21 (centres undefined)
 : 11	7
COC(=O)c1c(C)[nH]c(C(=O)COC(=O)c2cnn(C)c2C)c1C
 : 1	-2
NCC1Cc2cc(-c3nc4ccccc4s3)cc(Cl)c2O1 (centres undefined)
 : 2	0
CCN1CCN(c2c(CN(C(=O)c3ccc(Cl)c(Cl)c3)C(C)C)c(C)nn2-c2cccc(F)c2)CC1
 : -2	-2
CC(C)(CO)CCCNC(=O)C1Cc2cccc(F)c2O1 (centres undefined)
 : 5	4
CN(Cc1ccc(C(C)(C)C)cc1)C(=O)C1CCN(S(=O)(=O)c2cc(C(N)=O)n(C)c2)CC1
 : 2	4
Fc1ccc(-c2cc(C(F)(F)F)nc(N3CCCC3)n2)cc1
 : 2	-1
Cc1ccccc1C(=O)N[C@@H]1CCCCC1NC(=O)C1CCCN(C(=O)c2cc(C(F)(F)F)cc(C(F)(F)F)c2)C1 (some centres undefined)
 : 2	7
O=S(=O)(Nc1ccccn1)c1c(Cl)cccc1Cl
 : 1	7
CCOCCCN(CC(=O)c1c(C)c(C(=O)OCC)n(CC)c1C)S(=O)(=O)c1cccc(C(F)(F)F)c1
 : 12	20
Cc1nc(C)n(CCNS(=O)(=O)NCc2ccccc2)n1
 : 4	2
CCOC(=O)C1=C(O)/C(=C\c2ccc(O)c(O)c2)SC1=Nc1cccc(Cl)c1
 : -1	-1

By substructure: the compounds so far with a COOH group.
Below each compound: NPYLR7 ag	NPYLR7 ag max-min
CC1(C)SC(c2c[nH]c3ccccc23)N[C@H]1C(=O)O (some centres undefined)
 : -5	-8
O=C(O)C1=Cc2sc3c(c2CS1)CCCC3
 : 3	0

Source: PubChem

An excerpt; the hit share may differ from the screen's.
